Bioassay records: PubChem BioAssay, several laboratories
Bfl-1 A1 inh – inhibitors of the anti-apoptotic protein A1, read as caspase activation | MEF A1-2A-BIM cells, Caspase-Glo 3/7 luminescence, 3 h; percent of clofoctol response, vehicle zero | caspase activation, % (no concentration beside the values) | 0.066% of 330,000 active | AID 2462;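 active means over half of replicate activation scores above 10%, or exactly half above 10 with the replicate mean above 10; inconclusive means replicate mean below 10 yet half the replicates above 10; inactive means over half of replicates below 10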;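 further: wells of about 30 µL received 50 nL stock; many hits fall short of the cut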
Vif TR-FRET – inhibitors of Vif binding to APOBEC3G peptide, primary screen, biochemical, TR-FRET, GST-Vif 1-94, biotin-A3G peptide, dose response retest (AID 1117319) | TR-FRET GST-Vif / biotin-A3G peptide binding; higher % means a stronger effect; test concentration not given here; strong numbers were not always called active | one-dose inhibition, %; IC50 in µM for titrated hits | 0.57% of 260,000 active;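 active means above the screen mean plus three standard deviations and confirmed in dose response; inconclusive means results disagree or hit not tested in dose response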;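 further: Vif residues 1-94 fused to GST binding biotinylated APOBEC3G peptide 110-148; 0% = full assay without inhibitor and 100% = GST in place of GST-Vif; retest series ran down from 100 µM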
Beta apoptosis – beta cell apoptosis inhibition. protection from apoptosis, % (concentration not given with the values). INS-1E cytokine-induced death, ATP luminescence, 48 h; percent of positive-control rescue, neutral wells zero. 0.8% of 300,000 active;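 active means all replicates at 75% or more, or half of them and the mean; inconclusive means half reach 75% but not the mean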;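 further: 0% = cytokine-treated negative control wells and 100% = positive control rescue; higher means more ATP so stronger rescue from cytokine killing; wells of about 40 µL received 100 nL stock; the first replicate is given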
LANA-H2A inh – blocks KSHV LANA binding to histone H2A/H2B. AID 2629. 0.6% of 320,000 active. inhibition, % (no concentration beside the values). cell-free LANA-H2A/H2B peptide, fluorescence polarization. Q9QR71; in the data active means inhibition mostly above about 10%, no sharp cut-off; inactive means mostly below about 6.7%;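 further: stock transfer was 7.5 nL into about 10 µL; 0% = median of vehicle wells and 100% = median of positive control wells; one replicate is shown; the record names a cut of 25% in any replicate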
AF4-AF9 inh – MLL-AF4/AF9 protein interaction inhibition. P42568. AlphaScreen, biotin-AF4 peptide binding to FLAG-AF9. inhibition, % at 10 µM. 0.47% of 350,000 active;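 active means every replicate reaching a set inhibition limit, whatever the replicate mean, cut at about 25% in these data; inconclusive means mean inhibition reaches that limit but some replicates miss it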;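 further: 0% = plate neutral control median and 100% = total signal loss; the record names both 10 and 1 µM as test concentration; the first replicate is given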
Target sequence (P42568 whole entry, looked up): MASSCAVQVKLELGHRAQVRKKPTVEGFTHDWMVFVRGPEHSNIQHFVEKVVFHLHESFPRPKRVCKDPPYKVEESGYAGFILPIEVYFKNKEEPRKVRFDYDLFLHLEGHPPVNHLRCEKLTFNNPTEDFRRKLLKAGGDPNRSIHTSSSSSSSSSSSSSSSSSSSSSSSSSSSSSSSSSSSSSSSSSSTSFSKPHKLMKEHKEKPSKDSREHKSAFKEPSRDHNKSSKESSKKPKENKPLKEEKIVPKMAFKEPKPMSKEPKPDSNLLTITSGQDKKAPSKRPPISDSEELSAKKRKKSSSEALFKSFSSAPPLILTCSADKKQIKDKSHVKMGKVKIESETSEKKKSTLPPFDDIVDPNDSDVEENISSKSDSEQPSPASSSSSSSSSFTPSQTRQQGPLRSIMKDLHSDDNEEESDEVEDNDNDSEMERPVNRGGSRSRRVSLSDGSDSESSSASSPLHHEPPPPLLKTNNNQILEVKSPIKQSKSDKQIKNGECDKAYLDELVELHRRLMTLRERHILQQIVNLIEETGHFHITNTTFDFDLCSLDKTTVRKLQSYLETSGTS
* = called active by the depositor; ? = inconclusive; . = no result given; & = joins results of further samples. A portion of the library; count on the stated rates, not on these rows.

SMILES | Bfl-1 A1 inh | Vif TR-FRET | Beta apoptosis | LANA-H2A inh | AF4-AF9 inh
O=C(Cc1cccnc1)N1CCCCN2[C@H](C1)[C@@H](c1ccc(C#CC3CCCC3)cc1)[C@@H]2CO | . | . | . | . | -2.0
O=C1NC(=O)N(Cc2ccccc2)C(=O)C1Cc1ccccc1 (stereo not given) | . | . | . | . | 0.6
Cc1nc2ccccn2c1P(=S)(c1ccccc1)c1ccccc1 | . | . | . | . | 2.4
NC(=Nc1ccccc1)NN=Cc1c[nH]c2ccccc12 | . | . | . | . | ?
CCCNC(=O)[C@H]1[C@H](CO)[C@H]2Cn3c(cccc3=O)[C@H]2N1CC | . | . | . | . | -2.9
CC(C)C[C@@H]1COc2cccc(N3CCN(C)CC3)c2S(=O)(=O)N1 | . | . | . | . | -5.6
O=C(O)[C@@H]1[C@@H](CO)[C@@H]2Cn3c(ccc(-c4ccncc4)c3=O)[C@H]1N2C(=O)C1CCCC1 | . | . | . | . | -13
COC(=O)[C@@H]1[C@@H](CO)[C@@H]2Cn3c(ccc(-c4cccc(F)c4)c3=O)[C@H]1N2Cc1cccnc1 | . | . | . | . | 3.1
CC=Cc1ccc2n(c1=O)C[C@H]1[C@H](CO)[C@@H](C(=O)N(C)C)N[C@@H]21 (mixture of isomers) | . | . | . | . | -0.4
O=C1NC(=O)C(=Cc2ccc(Cl)cc2)C(=O)N1 | . | . | . | . | -2.1

Another view of some results above:
SMILES,Bfl-1 A1 inh,Vif TR-FRET,Beta apoptosis,LANA-H2A inh,AF4-AF9 inh
CC(C)C[C@@H]1COc2cccc(N3CCN(C)CC3)c2S(=O)(=O)N1,.,.,.,.,-5.6
O=C(O)[C@@H]1[C@@H](CO)[C@@H]2Cn3c(ccc(-c4ccncc4)c3=O)[C@H]1N2C(=O)C1CCCC1,.,.,.,.,-13
COC(=O)[C@@H]1[C@@H](CO)[C@@H]2Cn3c(ccc(-c4cccc(F)c4)c3=O)[C@H]1N2Cc1cccnc1,.,.,.,.,3.1
Cc1nc2ccccn2c1P(=S)(c1ccccc1)c1ccccc1,.,.,.,.,2.4
NC(=Nc1ccccc1)NN=Cc1c[nH]c2ccccc12,.,.,.,.,?
CCCNC(=O)[C@H]1[C@H](CO)[C@H]2Cn3c(cccc3=O)[C@H]2N1CC,.,.,.,.,-2.9

The list goes on:
SMILES | Bfl-1 A1 inh | Vif TR-FRET | Beta apoptosis | LANA-H2A inh | AF4-AF9 inh
COC(=O)[C@@H]1[C@@H](CO)[C@@H]2Cn3c(cccc3=O)[C@@H]2N1CC1CC1 | . | . | . | . | -2.2
COc1ccc(C#Cc2ccc([C@@H]3[C@H]4CN(C(=O)Cc5ccncc5)CCCCN4[C@H]3CO)cc2)cc1 | . | . | . | . | -4.9
NC(Cc1ccccc1)c1csc(Nc2ccccn2)n1 (stereo not given) | . | . | . | . | 4.7
COc1ccc(-n2nnnc2C(c2ccnc3ccccc23)N2CCC(n3c(=O)[nH]c4ccccc43)CC2)cc1 (stereo not given) | . | . | . | . | -36
O=C(Cc1ccncc1)N1CCCCN2[C@H](CO)[C@H](c3ccc(C#Cc4ccccc4F)cc3)[C@@H]2C1 | . | . | . | . | -4.3
O=C(O)[C@@H]1[C@@H](CO)[C@@H]2Cn3c(ccc(C4=CCCCC4)c3=O)[C@H]1N2CCc1ccccc1 | . | . | . | . | -0.8
CC=Cc1ccc2n(c1=O)C[C@H]1[C@H](CO)[C@@H](C(=O)O)[C@@H]2N1S(=O)(=O)c1ccccc1F (mixture of isomers) | . | . | . | . | -1.5
C/C=C/c1ccc([C@H]2[C@@H](CO)N3CCCCN(C(=O)Cc4cccnc4)C[C@H]23)cc1 | . | . | . | . | -3.5
Cc1c(CCC(=O)N2C[C@H]3C[C@@H](C2)c2cccc(=O)n2C3)c(=O)oc2c(C)c(O)ccc12 | . | . | . | . | -2.5
NC(Cc1ccc(Cl)cc1)c1csc(Nc2cnccn2)n1 (stereo not given) | . | . | . | . | 7.6
CCCC#Cc1ccc([C@@H]2[C@@H](CO)N3CCCCN(C(=O)Cc4ccccn4)C[C@@H]23)cc1 | . | . | . | . | 2.5
O=C(Cc1cccnc1)N1CCCCN2[C@H](CO)[C@H](c3ccc(/C=C/c4ccccc4)cc3)[C@@H]2C1 | . | . | . | . | 6.0
CC=Cc1ccc2n(c1=O)C[C@@H]1[C@@H](CO)[C@H](C(=O)OC)[C@H]2N1C(=O)CC1CC1 (mixture of isomers) | . | . | . | . | 2.6
CC[C@H](C)[C@@H]1NC(=O)CNC(=O)c2csc(n2)[C@H](C(C)(C)O)OC(=O)C(C)(C)[C@H](CCCC(C)(Cl)Cl)OC(=O)c2csc1n2 | . | . | . | . | 0.8
CCOC(=O)CNC(=O)N1Cc2cc(N3CCOCC3)ccc2-n2nncc2C1 | . | . | . | . | -1.5
O=C(Cc1cccnc1)N1CCCCN2[C@H](CO)[C@H](c3ccc(C#CC4CCCC4)cc3)[C@@H]2C1 | . | . | . | . | 6.3
CCC(=O)N1[C@@H]2c3ccc(-c4ccc(F)cc4)c(=O)n3C[C@H]1[C@H](CO)[C@H]2C(=O)OC | . | . | . | . | -1.4
CCOC(=O)[C@]12Cc3cc(Cl)ccc3[C@H]1N(C)C(=O)c1ccccc12 | . | . | . | . | -2.0
CCC(c1nnnn1-c1ccc2c(c1)OCCO2)N1CCC(n2c(=O)[nH]c3ccccc32)CC1 (stereo not given) | . | . | . | . | 3.9
CC(=O)OC1C(O)C2=C3C4(C)C1C(C)(C)C(=O)CC4C3(O)C(OC(C)=O)C1(CC1C)C2=O (stereo not given) | . | . | . | . | -4.4
CC(C)CC#Cc1ccc([C@@H]2[C@@H](CO)N3CCCCN(C(=O)Cc4ccccn4)C[C@@H]23)cc1 | . | . | . | . | -0.2
Brc1ccc2c(c1)CN(CC1CCCCC1)Cc1cnnn1-2 | . | . | . | . | -0.6
COc1ccc(OC(=O)N(C)C[C@@H]2OCc3cnnn3CCCC(=O)N([C@@H](C)CO)C[C@@H]2C)cc1 | . | . | . | . | 2.2&1.2&-2.1
C[N+](C)(C)CC1CCCC(C[N+](C)(C)C)C1=O (stereo not given) | . | . | . | . | 3.2
O=C(Cc1ccccn1)N1CCCCN2[C@H](CO)[C@H](c3ccc(-c4ccccc4)cc3)[C@@H]2C1 | . | . | . | . | -2.3
COc1ccc(-c2ccc3c(c2)CN(C(=O)NC2CCCCC2)Cc2cnnn2-3)cc1 | . | . | . | . | -2.3
O=C(Cc1ccccn1)N1CCCCN2[C@H](C1)[C@@H](c1ccc(C#Cc3ccccc3)cc1)[C@@H]2CO | . | . | . | . | -12
O=C(Cc1ccccc1)N1CCCCN2[C@H](CO)[C@H](c3ccc(C#CC4(O)CCCC4)cc3)[C@@H]2C1 | . | . | . | . | -11
COC(=O)[C@H]1[C@H](CO)[C@H]2Cn3c(ccc(-c4cccnc4)c3=O)[C@@H]1N2CCc1ccccc1 | . | . | . | . | -9.6
CC1C(=O)OC2CCN3CC=C(COC(=O)C(C)(O)C1(C)O)C23 (stereo not given) | . | . | . | . | -0.8
N#Cc1ccc(-c2ccc([C@@H]3[C@H](CO)N4CCCCN(C(=O)Cc5ccccc5)C[C@@H]34)cc2)cc1 | . | . | . | . | 2.8
CC(=CCOc1ccc2ccc(=O)oc2c1)C1=CC(=O)C(C)(C)O1 | . | . | . | . | 7.3
CC=Cc1ccc2n(c1=O)C[C@@H]1[C@@H](CO)[C@H](C(=O)OC)[C@H]2N1CC1CCCC1 (mixture of isomers) | . | . | . | . | -0.5
COc1ccc2[nH]c3c(c2c1)CCN=C3C | 1.1 | . | . | -1.0 | 15
CC1=CC2OC3CC4OC(=O)C=CC=CC(=O)OCCC(C)C(O)C(=O)OCC2(CC1O)C4(C)C31CO1 (stereo not given) | . | -12% | . | . | .
O=C(Cn1ncc2c3ccccc3n(Cc3ccccc3)c2c1=O)N1CCC2(CC1)OCCO2 | . | 1% | . | . | .
CN(C)C(Cc1ccccc1)C(=O)c1cccs1 (stereo not given) | . | 2% | . | . | .
CC1=NN(c2ccccc2)C(=O)C1/C=C1/C(=O)NC(=O)N(c2cccc(C)c2)C1=O (stereo not given) | . | 19% | . | . | .
Cc1nc2cc(-c3ccc(Cl)cc3)nn2c(C)c1CCC(=O)N1CCC2(CC1)OCCO2 | . | 3% | . | . | .
C=C1N2CCC(CC2)C1(O)c1ccccc1C (stereo not given) | -0.6 | -1% | . | -3.1 | .
O=C(O)c1cccc2c1NC(C(=O)O)C1CC(Sc3ccccc3[N+](=O)[O-])C(Cl)C21 (stereo not given) | 0.4 | 0.5µM* | 0 | . | .
CC1([N+](=O)[O-])COP(=O)(Nc2ccc(Cl)cc2)OC1 (stereo not given) | . | -4% | . | . | -1.7
O=S(=O)(c1ccc(Cl)cc1)N1Cc2ccccc2-n2nncc2C1 | . | 4% | . | . | -3.9
CC12CC(=O)C3C(CCC4CC=CCC43C)C1CCC2=O (stereo not given) | . | -1% | . | . | -1.1
Cc1ccc(-n2c(=S)[nH]c3ccc(C)cc3c2=O)cc1 | . | 2% | . | . | 0.8
C(#CCN1CCCC1)CN1CCCC1 | . | -1% | . | . | -3.4
Oc1ccc(O)c2c1C1(Cl)C(Cl)=C(Cl)C2(Cl)C1(Cl)Cl | . | 5% | . | . | 12
CC12CCC(O)CC1CCC1C2CCC2(C)C(C(=O)CC(O)C(F)(F)F)CCC12 (stereo not given) | . | -1% | . | . | -5.9
CC1=CC(C)CC(C)OC(=O)CC(c2ccc(O)cc2)NC(=O)C(Cc2c(Br)[nH]c3ccccc23)N(C)C(=O)C(C)NC(=O)C(C)C1 (stereo not given) | . | -3% | . | . | -1.8
O=C1C2CCN(CC2)C1(CO)CO | . | -5% | . | . | -0.5
More structures follow:
SMILES | Bfl-1 A1 inh | Vif TR-FRET | Beta apoptosis | LANA-H2A inh | AF4-AF9 inh
O=S1c2ccccc2-c2ccccc21 | . | 3% | . | . | 4.7
CS(=O)(=O)c1ccc(C2=C(CNC(=O)c3cccs3)[C@H]3CC[C@@H](C2)N3CCOc2ccccc2)cc1 | . | -2% | . | . | 4.2
COc1ccc2c(c1)C13CCN(C)C(C2)C1CCC1(C3)OCCO1 (stereo not given) | . | -8% | . | . | 1.5
CCCCC1(CCO)C(=O)NC(=S)NC1=O | . | -6% | . | . | -1.0
N#CC1c2ccccc2-n2nncc2CN1S(=O)(=O)c1cc(Cl)cc(Cl)c1 (stereo not given) | . | -6% | . | . | 17
CN1OC[C@@H]2CN[C@H](c3ccccc3Br)C[C@@H]21 | . | -4% | . | . | -1.3
COC(=O)C1=C(C(=O)OC)C2c3ccccc3C1c1ccccc12 | . | 6% | . | . | -10
CCOC(=O)c1cccc(C2=C(CNC(=O)c3cccnc3)[C@H]3CC[C@@H](C2)N3Cc2ccccc2)c1 | . | 3% | . | . | 1.4
c1ccc(CNC2CN3CCC2CC3)cc1 (stereo not given) | . | -3% | . | . | -4.2
O=C(CCN1CC2CCC(CC2)C1)c1cccs1 | . | -8% | . | . | -0.8
CC1(CCO)C(=O)NC(=S)NC1=O | . | -6% | . | . | 2.2
O=P(Oc1ccccc1)(N1CCOCC1)N1CCOCC1 | . | 0% | . | . | 3.6
COc1cccc(C2CCN(C)C2)c1 (stereo not given) | . | 2% | . | . | 0.6
C[C@]12CCC3C(CC[C@H]4[C@@H](O)[C@H](O)CC[C@]34C)C1CCC2=O (stereo not given in full) | . | 6% | . | . | 6.6
COc1ccc(C(CC(=O)c2ccc3c(c2)OCO3)c2c(O)c3ccccc3oc2=O)cc1OC (stereo not given) | . | 3% | . | . | 0.6
CC(=O)OCC12CC(OC(=O)CC(C)C)C(C)=CC1OC1C(O)C(OC(C)=O)C2(C)C12CO2 (stereo not given) | . | -9% | . | . | -0.1
COc1ccc(NC(=O)N2Cc3ccccc3-n3nncc3C2)cc1 | . | 0% | . | . | -5.6
O=C1NC(=O)C(=Cc2ccco2)C(=O)N1 | . | 20µM* | . | . | -5.5
NC(Cc1ccc(O)cc1)C(=O)NN=Cc1ccc(N(CCCl)CCCl)cc1 (stereo not given) | . | -7% | . | . | 7.6
C=CCCC1(C2=CCCCC2)C(=O)NC(=O)NC1=O | . | -8% | . | . | -2.4
Cn1cc(C=O)c2nccnc21 | . | -2% | . | . | -3.0
CC(C)(C)C(=O)C(Oc1ccc(Cl)cc1)n1cncn1 (stereo not given) | . | 23% | . | . | -1.9
